Six1-Eya2 blk: qHTS Assay for Inhibitors of the Six1/Eya2 Interaction; AID 651725, 2012; AlphaScreen GST-Six1/His-Eya2 binding, biochemical; stronger effect = lower value; control for the full effect not named in the record; Homeobox protein SIX1 (Homo sapiens) + Protein phosphatase EYA2 (Homo sapiens), …; 0.56% of 360,000 active; activity change, % (no concentration beside the values); in the data active = activity change below about -65%; inconclusive = about -30% to -65%; inactive = above about -30%; also: % is scaled to controls: 0 for no effect and ±100 for the full control effect; compound concentration not given in the record
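Homogeneous AlphaScreen proximity assay pairing GST-Six1 with His-tagged Eya2 (added as 5X mix: 250 nM and 500 nM) in 50 mM Tris pH 8.0, 300 mM NaCl, 1 mM TCEP. Glutathione donor and nickel acceptor beads; 1 h, 37 °C, dark.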
D2 potentiator: Beta-Arrestin HTS for Positive Allosteric Modulators of the Human D2 Dopamine Receptor: Potentiators | 0.23% of 360,000 active | DiscoveRx D2 beta-arrestin cells, luminescence, 90 min; 100% = 57 uM dopamine signal | D(2) dopamine receptor (Homo sapiens), P14416 | potentiation, % (test concentration not listed); active = potentiation of 50% or more; inconclusive = 30% to 50%; inactive = 30% or less;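 also: compound concentration not given in the record; tested on top of an EC20 dose of dopamine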
Target sequence (P14416 whole entry, looked up): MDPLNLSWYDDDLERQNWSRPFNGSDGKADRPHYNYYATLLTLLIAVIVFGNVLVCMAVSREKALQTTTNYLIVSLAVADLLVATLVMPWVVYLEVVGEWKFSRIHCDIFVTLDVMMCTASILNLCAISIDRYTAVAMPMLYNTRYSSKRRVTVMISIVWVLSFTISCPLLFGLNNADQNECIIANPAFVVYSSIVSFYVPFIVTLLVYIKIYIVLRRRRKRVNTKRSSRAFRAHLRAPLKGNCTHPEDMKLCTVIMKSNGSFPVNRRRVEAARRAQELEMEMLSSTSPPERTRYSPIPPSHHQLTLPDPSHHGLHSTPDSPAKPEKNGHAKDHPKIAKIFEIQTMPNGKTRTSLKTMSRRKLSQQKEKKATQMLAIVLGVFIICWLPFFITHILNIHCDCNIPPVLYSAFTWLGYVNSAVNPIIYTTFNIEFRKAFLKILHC
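D2 cells co-treated with compound plus 50 nM dopamine (EC20) for 90 min at 37 deg C to detect potentiation. Beta-arrestin recruitment was read as enzyme-fragment luminescence after 1 h at ambient temperature. Full response was set by 57 uM dopamine.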
CtBP-E1A inh: qHTS Assay for Inhibitors of the CtBP/E1A Interaction; CtBP / adenovirus E1A interaction (AlphaScreen); AlphaScreen GST-E1A/His-CtBP binding, 1536-well; stronger effect = lower value; control for the full effect not named in the record; activity change, % (concentration not given with the values); 0.49% of 340,000 active; AID 651724, 2012; in the data active means activity change below about -65%; inconclusive means about -30% to -65%; inactive means above about -30%; also: % is scaled to controls: 0 for no effect and ±100 for the full control effect
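Homogeneous bead-based format: GST-tagged E1A captured on glutathione donor beads, His-tagged CtBP on nickel acceptor beads; compounds precede bead addition by 2 h at 37 °C.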
D2 ag: Beta-Arrestin HTS for Positive Allosteric Modulators of the Human D2 Dopamine Receptor: Agonists. activation, % (concentration not given with the values). DiscoveRx PathHunter D2 beta-arrestin, luminescence, 90 min; 100% = 57 uM dopamine signal. 0.084% of 360,000 active. D(2) dopamine receptor (Homo sapiens), P14416; in the data active = activation above about 40%; inconclusive = about 15% to 40%; inactive = below about 15%; also: compound concentration not given in the record; the text of the record calls up to 30% inactive
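DiscoveRx PathHunter D2 beta-arrestin cells (2,100/well) attached overnight, then compound-stimulated 90 min at 37 C in HBSS/10 mM HEPES/0.1% Tween-20 buffer; beta-galactosidase complementation read by luminescence after 1 h at ambient temperature. Dopamine 57 uM final (EC100) as control.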
gsp ag: qHTS for Agonist of gsp, the Etiologic Mutation Responsible for Fibrous Dysplasia/McCune-Albright Syndrome: qHTS; 0.13% of 340,000 active; AID 624287, 2012; gsp mutant cells, cAMP HTRF, 30 min; control for the full effect not named in the record; Potency, µM (doses to about 76.9 µM), without a hit: top-dose activation (cAMP increase), usual class: activators; active = well fitted activation curve with a large enough effect; inconclusive = small, poorly fitted or top-dose-only effect, or another doubt; inactive = no such curve, though single readings can be large or run the other way; cell line not stated here;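 also: phosphodiesterase inhibitor Ro 20-1724 added with compounds to block cAMP breakdown; potency is read from the fitted curve at half-maximal effect; nearly all actives have a fitted effect of over 60% in size; about a fifth of the inactives were tested at one dose only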
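Cells stably selected in G418 were plated at 2000/well, grown 16-24 hr, then given compounds in DMSO with the PDE inhibitor […] (300 uM solution added) for 30 min at 37C; cAMP was read by HTRF.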
gsp antag: qHTS for Antagonists of gsp, the Etiologic Mutation Responsible for Fibrous Dysplasia/McCune-Albright Syndrome: qHTS; gsp-mutant cells, cAMP HTRF, 30 min; control for the full effect not named in the record; Potency, µM (top dose mostly 76.9 µM), for inactives: top-dose activity change, negative = inhibition, actives largely listed as inhibitors; 0.4% of 340,000 active; active = falling curve of any shape with a large fitted effect; inconclusive = falling curve, mostly with a smaller effect; inactive = flat or rising curve; cell line not stated here;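 also: intracellular cAMP measured with PDE inhibitor Ro 20-1724 present during compound exposure; potency is read from the fitted curve at half-maximal effect; % is scaled to controls: 0 for no effect and ±100 for the full control effect; nearly all actives have a fitted effect of over 65% in size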
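Cells, 2000/well, grown 16–24 h in DMEM 10% FBS with 0.5 mg/ml G418, then compounds plus […] (300 uM addition stock), 30 min at 37C. cAMP read by HTRF (cAMP-d2 and anti-cAMP antibody-K in lysis buffer) after 30 min RT.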
Starred values were filed as active, the others as inactive; ? = inconclusive; / = no result given; [ ] = another dose, or the depositor's remark.

gsp ag | D2 potentiator | gsp antag | CtBP-E1A inh | D2 ag | Six1-Eya2 blk | canonical_smiles
0% | 0 | -9% | -1 | 1.0 | 3 | CCOc1cc(S(=O)(=O)NC2CC2)c(OCC)cc1-n1cnnn1
-22%[15.4 µM] | 7 | / | -10 | 0.6 | -9 | Cc1nc2sc(C(=O)c3ccccc3)c(N)c2c(C)c1C
0% | -1 | 4% | 6 | -1.3 | 7 | CCOC(=O)CSc1nc2c(c(=O)n(C)c(=O)n2C)n1CCCc1ccccc1
17% | -2 | -1% | 23 | 0.5 | 19 | Fc1ccccc1COc1ccc(-c2nnn(Cc3ccccc3F)n2)cc1
/ | -7 | -1% | -20 | -2.0 | -12 | COc1cc(C2c3c(c(C)c(C)oc3=O)Oc3c(C)c(C)oc(=O)c32)ccc1OS(=O)(=O)c1ccc(C)cc1
-2% | 5 | -8% | -5 | -4.6 | -2 | Cc1nn(-c2ccccc2)c(Cl)c1C1C(C#N)=C(N)Oc2c1c(C)nn2-c1ccccc1 (stereo not drawn)
/ | -11 | / | -21 | -6.0 | 7 | CCOc1ccc(-c2noc(-c3csc([C@@H]4O[C@H](CO)[C@H](O)[C@H](O)[C@H]4O)n3)n2)cc1
10% | -9 | -15% | -24 | 4.6 | -6 | CCOc1ccc(OCC)c(NC(=O)C2CCN(S(=O)(=O)c3ccc4c(c3)CC(C)N4C(C)=O)CC2)c1 (stereo not drawn)
-10% | -20 | 15% | 1 | 1.9 | ? | CN(C)CCCN(C(=O)c1ccc(C(=O)c2ccccc2)cc1)c1nc2cc3c(cc2s1)OCO3
/ | -6 | / | 6 | -3.2 | -1 | CN1CCN(C(=O)C2Cc3c(-c4cccc(F)c4)ccnc3O2)CC1 (stereo not drawn)
-43%[inhibitor] | -6 | / | -9 | -6.4 | 2 | CCc1ccccc1NC(=O)CSc1nc2cc(C(=O)NCC3CCCO3)ccc2c(=O)n1CC1CCCO1 (stereo not drawn)
-46%[inhibitor] | -12 | 0% | 5 | -0.7 | 6 | Cc1cc(C)n(C(=O)c2ccc(NC(=O)CC(C)C)cc2)n1
-10%[15.4 µM] | -33 | -2% | 2 | -5.9 | -11 | COc1ccc(Cl)cc1NC(=S)N(CCCN1CCOCC1)Cc1cn(C)c2ccccc12
/ | -20 | / | -6 | -4.4 | -6 | Cc1cccc(C(O)c2ncc(-c3ccccc3)[nH]2)c1C (stereo not drawn)
-25% | -8 | -22% | -14 | -2.6 | -4 | Cc1ccc(C2=NN(Cc3nnc(-c4ccccc4)o3)C(=O)SC2)cc1
18% | -6 | 11% | 5 | 0.5 | 3 | CC(NC(=O)c1ccncc1)C(C)(C)C (stereo not drawn)
-3% | -16 | 8% | -2 | -6.5 | 1 | O=C(O)/C=C\C(=O)Nc1cc(O)ccc1[N+](=O)[O-]
4% | -7 | 3% | 7 | 1.0 | 0 | COC(=O)C(C(=O)OC)=C(/C=C/C=C/N(C)C)N(C)C
-39% | -13 | 12% | -19 | -2.7 | 6 | CC(=O)Nc1ccc(S(=O)(=O)N2CCC(C(=O)N[C@@H](Cc3ccccc3)C(=O)O)CC2)cc1
-12%[15.4 µM] | 8 | 3% | 0 | -2.4 | 7 | COC(=O)C1=C(C)N(C)C(=S)NC1c1c(OC)ccc2ccccc12 (stereo not drawn)
-4% | -23 | -16% | 5 | 0.1 | -6 | O=C(CN(c1ccc(Cl)cc1)S(=O)(=O)c1ccc(Cl)c([N+](=O)[O-])c1)NCCc1ccc(F)cc1
0% | 14 | -21% | 3 | 2.6 | 5 | Cn1c(/C(C#N)=C(\O)COc2ccc3ccccc3c2)nc2ccccc21
8%[15.4 µM] | -8 | 15% | -2 | -4.6 | 3 | O=C(OCc1ccccc1)C1=NNC2C(=O)N(c3ccccc3)C(=O)C12 (stereo not drawn)
-5% | -8 | 4% | 12 | 0.0 | -4 | COc1ccc(C2C(C#N)=C(N)N(N(C)C)C3=C2C(=O)CCC3)cc1 (stereo not drawn)
-26% | -10 | -5% | 9 | 0.1 | -1 | CCn1nc(C)c(NC(=O)/C=C/c2ccc(OC)c(COc3ccc(Br)cc3)c2)c1C
-20% | -5 | 11% | -3 | -2.2 | -6 | Cn1cccc1-c1cc(C(=O)O)[nH]n1
0% | -13 | 2% | -5 | 1.6 | 12 | CCN(CC)c1ncc(C)c(=O)[nH]1
-8%[15.4 µM] | -7 | -12% | -6 | 0.5 | -11 | CN(C)c1cccc(C(=O)N2CCCC(CCC(=O)N3CCN(c4ccccn4)CC3)C2)c1 (stereo not drawn)
5%[15.4 µM] | -1 | 0% | 4 | -4.0 | 10 | CN(C)CCCN1C(=O)CSC1c1ccc([N+](=O)[O-])cc1 (stereo not drawn)
-3%[15.4 µM] | -5 | -4% | -7 | -1.0 | -4 | O=C(Nc1nc(-c2ccc(Cl)cc2)cs1)C1=COCCO1

Among those listed so far, these have an aryl thioether with sulfur outside any ring:
gsp ag | D2 potentiator | gsp antag | CtBP-E1A inh | D2 ag | Six1-Eya2 blk | canonical_smiles
0% | -1 | 4% | 6 | -1.3 | 7 | CCOC(=O)CSc1nc2c(c(=O)n(C)c(=O)n2C)n1CCCc1ccccc1
-43%[inhibitor] | -6 | / | -9 | -6.4 | 2 | CCc1ccccc1NC(=O)CSc1nc2cc(C(=O)NCC3CCCO3)ccc2c(=O)n1CC1CCCO1 (stereo not drawn)

Next results follow.
gsp ag | D2 potentiator | gsp antag | CtBP-E1A inh | D2 ag | Six1-Eya2 blk | canonical_smiles
1% | 7 | ? | ? | 12 | 0 | Oc1ccc(N2CCN(c3nc(-c4cccs4)nc4ccccc34)CC2)cc1
/ | -7 | -11% | 10 | -2.3 | 9 | CCOC(=O)c1ccc(-c2c(-c3ccc4c(c3)OCO4)noc2C)cc1F
-27% | 1 | 8% | 0 | -1.0 | -11 | O=C(CCc1ccco1)CCc1ccco1
/ | 1 | / | -16 | -1.0 | -8 | COc1cc(OC)nc(Nc2nc(C(N)CCc3ccccc3)cs2)n1 (stereo not drawn)
10%[15.4 µM] | -5 | 3% | -1 | -5.1 | 8 | COc1ccc(C(=O)NCCS(=O)(=O)NCc2ccc(F)cc2)cc1
-6%[15.4 µM] | -9 | -2% | 0 | 2.1 | 13 | CC(=O)Nc1ccc(CCc2nc3ccccc3[nH]2)cc1
-2% | -6 | -11% | / | -4.4 | 4 | CC(=O)c1cccc(S(=O)(=O)N2CCC(C(=O)O)CC2)c1
/ | -16 | / | -10 | -5.1 | -12 | C(=C\c1ccccc1)/CN1CCN(C(c2nnnn2C2CCCC2)C2CC2)CC1 (stereo not drawn)
3%[15.4 µM] | 4 | -10% | 3 | 0.3 | -9 | O=C(c1cccc(NS(=O)(=O)c2cccc(F)c2)c1)N1CCN(c2ccccc2)CC1
2% | -7 | 12% | 8 | -0.5 | 2 | Cn1c(NNC(=O)c2ccccc2F)cc(=O)n(C)c1=O
-2%[15.4 µM] | 1 | -19% | -19 | 0.0 | -12 | CCOC(=O)CCC(=O)Nc1ccc(S(=O)(=O)N2CCCCC2)cc1
-47%[inhibitor] | -12 | -10% | -2 | 3.5 | -2 | COc1ccc(N2C(=O)C(CC(=O)Nc3ccccc3)N(Cc3ccc4c(c3)OCO4)C2=O)cc1 (stereo not drawn)
-11% | -4 | -1% | -1 | -1.6 | 7 | C#CCCOC(=O)N1C2=NC(C(=O)OC)=C(C(=O)OC)[C@@H]3Nc4ccccc4[C@]23C[C@H]1C(=O)OC
? | -4 | 4% | 2 | -2.6 | 27 | COc1ccc(N2C(=O)CC2(C#N)c2ccc(OCc3ccccc3)cc2)cc1 (stereo not drawn)
-4% | -1 | -17% | 3 | -2.2 | 2 | COc1ccc(N2CCN(C(=O)COC(=O)COc3ccc(C#N)cc3)CC2)cc1
16%[15.4 µM] | -7 | 1% | 0 | -2.9 | 10 | COc1ccc(-c2[nH]ncc2CN2CCC(c3ccncc3)CC2)cc1F
14% | 0 | -11% | 1 | 1.3 | 1 | Cc1cccc(NC(=O)CN(CC2CCCO2)C(=O)c2cc(S(=O)(=O)N(C)C)ccc2F)c1C (stereo not drawn)
42% | 1 | -18% | 0 | -2.4 | -5 | O=C(O)c1oc2ccccc2c1CSc1ccc(Cl)cc1
15%[15.4 µM] | -11 | -7% | -25 | -5.4 | -1 | c1ccc(CN2CCN(C(c3ccccc3)c3nnnn3Cc3ccccc3)CC2)cc1 (stereo not drawn)
-11%[15.4 µM] | ? | -6% | -1 | ? | 57 | CN1c2ccccc2C(C)(C)C12C=Nc1c(cc(N3CCOCC3)c3ccccc13)O2 (stereo not drawn)
-6% | -4 | 3% | -2 | 1.8 | 6 | CC(C)N1CC(COc2ccc(Br)cc2)OC1=O (stereo not drawn)
-5% | -15 | 12% | -1 | -3.0 | 4 | C=CCSc1nc2sc(-c3ccccc3)cc2c(=O)n1N
-44%[15.4 µM] | 6 | 11% | -2 | 6.9 | 5 | CC1CCCCN1S(=O)(=O)CCNC(=O)c1ccccc1 (stereo not drawn)
-40%[inhibitor] | -5 | 14% | 2 | -3.5 | 8 | CCc1nc(SCc2ccc(F)cc2)n[nH]1
-2%[15.4 µM] | 0 | -4% | 4 | 1.6 | -1 | O=C(NNC(=O)C1CCC1)c1ccc(Br)cc1
25% | -16 | -3% | -1 | -0.5 | 11 | Cc1ccc(S(=O)(=O)Nc2c(C)ccc3nsnc23)cc1
0%[15.4 µM] | -9 | 11% | -2 | -2.5 | 5 | COc1ccc(S(=O)(=O)N2CCCCC2)cc1NS(=O)(=O)c1ccc(CNC(C)=O)cc1
17% | -7 | -14% | / | 3.1 | 4 | COc1cc(/C=N/NC(=O)c2cc(C3CC3)[nH]n2)ccc1O
-10% | -25 | -6% | 0 | 0.7 | 2 | COc1ccccc1Nc1nc(N)nc(CSc2nccc(C)n2)n1

Filtered by structure, those above with a furan ring, fused or not
gsp ag | D2 potentiator | gsp antag | CtBP-E1A inh | D2 ag | Six1-Eya2 blk | canonical_smiles
-27% | 1 | 8% | 0 | -1.0 | -11 | O=C(CCc1ccco1)CCc1ccco1
42% | 1 | -18% | 0 | -2.4 | -5 | O=C(O)c1oc2ccccc2c1CSc1ccc(Cl)cc1
